Source: PubChem
DT40 TDP1 CPT – DT40-hTDP1 cell growth loss with CPT; chicken DT40 Tdp1-/-;hTDP1 cells + 20 nM CPT, ATP luminescence, 48 h; Potency, µM (titrated, usually from 46.2 µM), without a hit: at the top dose activity change, negative = growth inhibition, most hits filed as inhibitors; actives 12% (n = 420,000); AID 686979; note: nearly all actives have a fitted effect of over 55% in size
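Chicken DT40 Tdp1-/- cells complemented with human TDP1, 400 cells/well, exposed to compounds plus 20 nM camptothecin for at least 48 h at 37 C; viability read as ATP content by CellTiter-Glo luminescence.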
N370S GC mod – inhibits or activates N370S mutant glucocerebrosidase; P04062; N370S GC spleen homogenate, 4MU-glucoside fluorescence; Potency, µM (titrated, usually from 59.4 µM), for inactives: at the top dose activity change, negative = inhibition, actives largely listed as inhibitors; actives 0.092% (n = 330,000);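 note: 0% = full enzyme activity and -100% = no enzyme basal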
* marks the source's active call; other numbers are inactive results; ? = inconclusive; . = not tested or not shown; & = joins results of further samples. Calls come from the whole dose curve; as a rule, active = well fitted curve in the direction sought with a large enough effect; inconclusive = small, poorly fitted or top-dose-only effect, or another doubt; inactive = no such curve, though single readings can be large; an effect the other way counts as inactive or inconclusive. Unless noted, % is set by controls: 0 for no effect and ±100 for the full control effect; potency is the fitted concentration of half-maximal effect. A portion of the library, and most or all hits are left out here.

structure | DT40 TDP1 CPT | N370S GC mod
COc1ccc(N2CC(C(=O)N/N=C/c3c[nH]c4ccccc34)CC2=O)cc1 (stereo not given) | 14% | -4%
COc1ccccc1CC(=O)Nc1ncc(C)s1 | ? | -10%
CN(C)C(=S)Nc1cccc(F)c1 | 5% | -29%
Cn1c(N)c(C(=O)CSc2ncn[nH]2)c(=O)n(C)c1=O | 9% | -14%
Cc1ccc(NS(=O)(=O)c2cc(NC(=O)C(C)Oc3ccccc3)ccc2C)c(C)c1 (stereo not given) | ? | 5%
COC(=O)C1=CN(c2cc(C)cc(C)c2)C=C(C(=O)OC)C1c1cccc(F)c1 | 18µM* | 25%
O=C1OC(c2ccc3c(c2)OCO3)=N/C1=C\c1ccc(C(=O)O)cc1 | -18% | 7%
CCC(C)(C)C(=O)Nc1ccc(C(N)=O)cc1 | -10% | 5%
CCCCOc1ccc(OCCCN2CCOCC2)cc1 | ? | -18%
COC(=O)c1ccccc1OCc1cccc(C)n1 | 0% | -2%
CC(=O)c1cccc(NC(=O)C2C(c3ccccc3)C2(Cl)Cl)c1 (stereo not given) | -23% | -2%
CCCCC(=O)Nc1nc2c(OC)cc([N+](=O)[O-])cc2s1 | -27% | -1%
Cc1ccc(NC(=O)C2CCCN(C(=O)NCc3ccccc3)C2)c(C)c1 (stereo not given) | 3% | -2%
COc1ccc(C2NC(=O)CCC2[N+](=O)[O-])c(OC)c1 (stereo not given) | -2% | -5%
Cc1ccc(C)c(N2CCN(C(=O)Cn3c(=O)oc4cc(S(=O)(=O)N5CCCC5)ccc43)CC2)c1 | 16µM* | -11%

Rewritten with values under each structure: 4 of the compounds above
Every second line gives: DT40 TDP1 CPT	N370S GC mod
CC(=O)c1cccc(NC(=O)C2C(c3ccccc3)C2(Cl)Cl)c1 (stereo not given)
    -23%	-2%
CCCCC(=O)Nc1nc2c(OC)cc([N+](=O)[O-])cc2s1
    -27%	-1%
Cc1ccc(NC(=O)C2CCCN(C(=O)NCc3ccccc3)C2)c(C)c1 (stereo not given)
    3%	-2%
COc1ccc(C2NC(=O)CCC2[N+](=O)[O-])c(OC)c1 (stereo not given)
    -2%	-5%

(list continues)
structure | DT40 TDP1 CPT | N370S GC mod
CCCC(=O)NC(=S)c1c(C)n(C)n(-c2ccccc2)c1=O | -8% | -1%
O=C(CSCc1ccccc1)N/N=C/c1ccc(OCC(=O)N2CCCCC2)cc1 | -6% | 5%
COC(=O)C1=C(C)NC2=C(C(=O)CC(C)(C)C2)C1c1ccsc1 (stereo not given) | -13% | 12%
Cc1nnc(NC(=O)C23CC4CC(CC(C4)C2)C3)s1 | -2% | -15%
Cc1nn(-c2ccccc2)c(Cl)c1/C=C1/C(=N)N2N=C(C(C)C)SC2=NC1=O | ? | 0%
CC1CC(C)CN(CCCNS(=O)(=O)c2cc(Br)cc3c2N(C(=O)C2CC2)CC3)C1 (stereo not given) | 8% | 2%
CCCNC(=O)CS(=O)Cc1nc(-c2ccccc2C)oc1C (stereo not given) | -7% | 9%
CS(=O)(=O)N1CCc2cc(C(=O)Nc3ccc(O)cc3)ccc21 | 6% | -4%
CCSc1nc2c(c(=O)[nH]1)C(c1cccnc1)C(C(=O)OC)=C(C)N2 (stereo not given) | 3% | 0%
CN(C)Cc1c(C(=O)N/N=C/c2cccc3ccccc23)nnn1-c1nonc1N | -8% | -18%
COCCNC(=O)C1CC(=O)N(c2ccc(F)c(Cl)c2)C1 (stereo not given) | -17% | .
COc1ccccc1CNC(=O)C(NS(=O)(=O)c1cccc2nsnc12)C(C)C (stereo not given) | -9% | -6%
CC(NC(=O)Cn1nc(-c2ccccc2)ccc1=O)c1ccccc1 (stereo not given) | -8% | 1%
COc1ccc(OCc2nc(C#N)c(NCCCn3ccnc3)o2)cc1 | 0% | 0%
CCCNC(=O)c1cccc(COc2ccccc2OC)c1 | ? | 4%

structure | DT40 TDP1 CPT | N370S GC mod
CC(C)(C)C(=O)NC1(C(F)(F)F)N=C2SCCN2C1=O (stereo not given) | 8% | 3%
C=CCSc1nnc2nc3[nH]c4c(C)cccc4c3nn12 | 1% | 1%
CC(C)Cn1c(N)c(C(=O)CSc2nnc(C3CC3)n2C2CC2)c(=O)n(C)c1=O | -8% | -1%
CC(NC(=O)Nc1ccccc1)C(c1cccs1)N1CCOCC1 (stereo not given) | -1% | 15%
CCOc1ccccc1N1CCN(C(=O)c2cccc(-c3ccc(O)cc3)c2)CC1 | 16µM* | 28%
COc1cc(CNCC(C)C)c(Br)cc1OCC(=O)NCc1ccccc1 | -19% | 7%
CCCn1nnnc1NCc1ccccc1OCc1cccs1 | -25% | 5%
Cc1cc(NC(=O)CSc2nccn2-c2cccc(Cl)c2)no1 | -7% | 0%
COC(=O)c1cnc(NNS(=O)(=O)c2ccc(Cl)cc2)nc1C(F)(F)F | 11% | -5%
COCc1cc(=O)n2[nH]c(C)nc2n1 | -20% | -2%
CC(C)CN1CCC(=O)N(CCSc2ccccc2)CC1 | 0%&-29% | -16%
CN(C(=O)CSc1nnc2ccccn12)c1c(N)n(Cc2ccccc2)c(=O)[nH]c1=O | -1% | 19%
O=C(NCc1ccccc1Cl)C(=O)NCC1OCCCN1S(=O)(=O)c1cccs1 (stereo not given) | 4% | 6%
c1ccc2nc(N3CCOCC3)c(N3CCOCC3)nc2c1 | -1% | -3%
COc1ccc(OCc2nnc(SCC(=O)NC3CC3)n2C)cc1 | -1% | -3%

A second format for some results above:
C=CCSc1nnc2nc3[nH]c4c(C)cccc4c3nn12
  DT40 TDP1 CPT: 1%	N370S GC mod: 1%
Cc1ccc(NS(=O)(=O)c2cc(NC(=O)C(C)Oc3ccccc3)ccc2C)c(C)c1 (stereo not given)
  DT40 TDP1 CPT: ?	N370S GC mod: 5%
CN(C(=O)CSc1nnc2ccccn12)c1c(N)n(Cc2ccccc2)c(=O)[nH]c1=O
  DT40 TDP1 CPT: -1%	N370S GC mod: 19%

Continued.
structure | DT40 TDP1 CPT | N370S GC mod
CNC(=O)COc1ncnc2scc(-c3ccc(F)cc3)c12 | 0% | -1%
O=C(c1ccco1)N1CCN(C(c2cccs2)c2nnnn2C2CCCCC2)CC1 (stereo not given) | ? | 13%
Cc1ccc(NC(=O)c2ccc(NCc3ccc(F)cc3)nc2)cc1 | 1% | 0%
OCCN(Cc1ccccc1)C(=S)NC1CCCCC1 | 1% | -17%
COc1ccc(C2CC(c3cccs3)=NN2C(=O)CSc2nc(=O)n3ccc(C)cc3n2)cc1 (stereo not given) | ? | 16%
O=C(CCNC(=O)c1ccc(Br)o1)NCc1ccccc1Cl | 0% | 11%
COc1ccccc1C(=O)NNC(=O)C1CCN(C(=O)OC(C)(C)C)CC1 | 0% | -5%
COc1ccc(CN(C(=O)Cn2nnc(-c3ccc(C)o3)n2)C(C(=O)NCC2CCCO2)c2ccco2)cc1 (stereo not given) | -28% | -6%
O=C(NOC(=O)c1cc(Br)ccc1Cl)c1cccs1 | -6% | -2%
CCOC(=O)C1CCCN(c2c(N3CCN(c4ccccn4)CC3)c(=O)c2=O)C1 (stereo not given) | -10% | -2%
CCCCCC(=O)Nc1cccc(C2=NOC3(C2)C[C@@H](C(N)=O)N(C(=O)c2ccc(Cl)cc2)C3)c1 (stereo not given in full) | ? | -14%
CC(=O)Nc1ccc(S(=O)(=O)N(C)C2CCN(C)CC2)cc1 | 17% | -16%
CC(=O)Nc1cccc(C(=O)OCc2ccc(C(=O)Oc3ccc(Cl)cc3)cc2)c1 | -17% | 5%
CC(C)(C)N(NC(=O)OCc1ccccc1)C(=O)c1ccccc1Cl | -7% | -5%
CCO[C@H]1OC(C(=O)NC2CC2)=C[C@@H](c2c[nH]c3ccccc23)[C@@H]1CCCO | -1% | -7%

structure | DT40 TDP1 CPT | N370S GC mod
CNC(=S)NNC(=O)c1sccc1OCc1ccccc1 | -6% | 4%
Cc1cccc(C)c1NC(=O)C[n+]1cc(-c2ccccc2)n2c1CCC2 | 1% | 1%
Cc1cc2c(cc1S(=O)(=O)CCC(=O)N(C)Cc1ccccc1)OCC(=O)N2 | -15% | -10%
C/C(N)=C(/C#N)C(=O)CSc1nnc(COc2ccccc2Cl)o1 | ? | 1%
Cn1nc(C(F)(F)F)c(-c2ccc(Br)cc2)c1NC(=O)CSCC(=O)O | 0% | 15%
Cc1cc(=O)n(CC=C(Cl)Cl)c2ccccc12 | -4% | 24%
Cc1ccccc1NC(=O)Nc1ccc(C(F)(F)F)cc1 | 9.2µM* | 2%
CCc1ccc(CNC(=O)C2CCCN(c3nc4ccccc4o3)C2)cc1 (stereo not given) | -20% | -11%
Cc1ccc(/C=N/NC(=O)c2nnn(-c3nonc3N)c2-c2ccccc2)o1 | 6% | -15%
COc1ccc(N(C(=O)c2ccncc2)S(=O)(=O)c2cccs2)cc1 | -11% | -28%
O=C(c1cc(COc2ccc(F)cc2Cl)on1)N1CCCC(c2ccccc2)C1 (stereo not given) | ? | 1%
Cc1ccc(C)c(NC(=O)c2cc(-c3cc(C)ccc3O)n[nH]2)c1 | ? | 6%
CCCn1c(S(=O)(=O)O)nc2ccccc21 | -20% | 2%
COCCn1nnnc1C(CC(C)C)N1CCN(c2ccccc2)CC1 (stereo not given) | -22% | 0%
NCCc1nnc(SCC(=O)Nc2cccc(Cl)c2)o1 | 0% | 0%

structure | DT40 TDP1 CPT | N370S GC mod
CC(=O)c1ccccc1OCCCCN1CCCCC1 | -4% | -6%
Cc1ccc(-c2c(C(=O)N/N=C/C3CCCCC3)nnn2-c2nonc2N)cc1 | -17% | -6%
O=C(Nc1nn[nH]n1)c1ccc(S(=O)(=O)N2CCCCC2)cc1 | -8% | 11%
COc1cccc2c(O)cc(=O)n(C)c12 | -21% | -9%
CCc1ccc(-c2c(C)sc(NC(=O)C3CCC3)c2C#N)cc1 | -9% | 3%
O=C(Cn1ncc2c1-c1ccccc1OC2)Nc1ccc(Cl)cn1 | -22% | 3%
COc1ccccc1N(CC(O)COc1ccccc1C)S(=O)(=O)c1ccccc1 (stereo not given) | 11% | -21%
COc1cccc(-n2nnc3c(=O)n(CC(=O)N4CCCc5ccccc54)cnc32)c1 | ? | ?
CCOc1cc2c(cc1OCC)C(c1ccccc1OC)OC(=O)C2 (stereo not given) | 11% | 9%
S=c1[nH]c(-c2ccc(Cl)cc2)cs1 | ? | -9%
CCc1cc(=O)oc2cc(C)cc(OCC(C)=O)c12 | 0% | -1%
CCCCN(C(=O)COC(=O)CSc1cc(C)c2ccccc2n1)c1c(N)n(CCC)c(=O)[nH]c1=O | 8% | -1%
S=C(NCc1ccco1)Nc1ccccn1 | -12% | 6%
COC(=O)c1ccc(CSc2nc3ccccc3s2)o1 | -5% | 9%
CC(C)(C)c1ccc(-c2nnc(SCC(=O)O)n2N)cc1 | -17% | -23%

In the list so far, these contain a tert-butyl group.
structure | DT40 TDP1 CPT | N370S GC mod
CC(C)(C)C(=O)NC1(C(F)(F)F)N=C2SCCN2C1=O (stereo not given) | 8% | 3%
COc1ccccc1C(=O)NNC(=O)C1CCN(C(=O)OC(C)(C)C)CC1 | 0% | -5%
CC(C)(C)N(NC(=O)OCc1ccccc1)C(=O)c1ccccc1Cl | -7% | -5%
CC(C)(C)c1ccc(-c2nnc(SCC(=O)O)n2N)cc1 | -17% | -23%

The results go on:
structure | DT40 TDP1 CPT | N370S GC mod
COC(=O)C1C2C=CC(C3CC23)C1C(=O)OCC(=O)c1ccc(OC)cc1 (stereo not given) | -29% | 2%
C=C(C)CSc1nnc2n(N)c(=O)c3ccccc3n12 | 6% | -8%
COC(=O)c1cccc(NC(=O)c2ccccc2)c1 | -6% | 6%
Nc1ccc(Oc2ccc3c(c2)C(=O)N(CC2CCCO2)C3=O)cc1 (stereo not given) | -9% | 1%
Cc1ccc(/C=N/NC(=O)CCCOc2ccc(Cl)cc2Cl)cc1[N+](=O)[O-] | -17% | 6%
S=C1NCN(Cc2ccco2)CN1 | 4% | 1%
O=c1cnc2cc([N+](=O)[O-])ccc2[nH]1 | -7% | -17%
Cc1ccc(S(=O)(=O)c2cc3c(=O)n4ccccc4nc3n(Cc3ccco3)c2=N)cc1 | ? | 1%
CCCCn1c(SCc2ncc(-c3ccccc3)o2)nc2cc(S(N)(=O)=O)ccc21 | 12µM* | 16%
Cc1ccc(NC(=O)CN2c3cccc4cccc(c34)S2(=O)=O)cc1S(=O)(=O)N1CCOCC1 | ? | -2%
COCCNC(=O)c1cc(-c2cccs2)on1 | ? | 2%
CN1CN(C)c2cccc3cccc1c23 | 17% | -11%
COc1cc(/C=C/c2noc(-c3ccccc3O)n2)ccc1OC(C)=O | -20% | -19%
CCn1c(Cc2ccccc2)nnc1SCC(=O)Nc1ccc(S(N)(=O)=O)cc1 | -9% | -2%
Cc1ccc(COc2ccc(/C=N/NC(=O)c3nnn(-c4nonc4N)c3COc3ccc(F)cc3)cc2)cc1 | ? | -21%
COc1ccc(Cl)cc1N(CC(=O)N1CCCC1)S(C)(=O)=O | -14% | 0%
